Peg3 imprint: inducers of genomic imprint erasure in mouse ES cells. Potency, µM (series often up to 60.7 µM), inactives show at the highest dose activity change, positive = activation, most hits filed as activators. mouse ES Peg3-LacZ reporter, beta-gal luminescence, 40 h. hit rate 0.02% among 110,000; active means well fitted activation curve with a large enough effect; inconclusive means small, poorly fitted or top-dose-only effect; inactive means no such curve, though single readings can be large or run the other way;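 further: 0% = negative control wells on the plate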
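Imprint erasure is scored as LacZ activity from the silenced maternal Peg3 allele in feeder-free female ES cells cultured 40 h with LIF. Luminescence is normalized to in-plate negative controls and fitted to the Hill equation.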
IkB signaling: suppresses IkB signaling in ABC-DLBCL reporter cells; ABC-DLBCL IkBa-CBG/CBR dual luciferase ratio, 4 h; response scale: scaled: untreated 0%, proteasome inhibitor 100%; Potency, µM (series often up to 57.1 µM), for the others: at the top dose IkBa stabilization activation; hit rate 0.04% among 110,000; AID 445; active means well fitted curve in the direction sought with a large enough effect in the signal ratio, not every such curve was filed as active; inconclusive means small, poorly fitted or top-dose-only effect, or a change in a side signal; the % refers to the signal ratio;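 further: the direction sought is a rising ratio; 0% = basal untreated cells and 100% = reference inhibitor full response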
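Luminescence ratio of IκBα-fused green versus native red beetle luciferase in OCI-Ly3 cells, 4 h post-doxycycline with compound; red signal alone, scaled from basal (0%) to zero light (-100%), flagged nonspecific or cytotoxic effects.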
* = called active by the depositor; ? = inconclusive; nt = no result given; & = joins results of further samples; [ ] = remark or other dose. Potency means the concentration at half of the fitted maximal effect.

Sample of the layout (2 entries):
molecule | Peg3 imprint | IkB signaling
CNCC[C@H](Oc1ccc(C(F)(F)F)cc1)c1ccccc1 | -30.2%[inhibitor] | ?
O=C(Cl)/C=C/C(=O)Cl | 0.0% | -0.3%

This part in full, from the start:
molecule | Peg3 imprint | IkB signaling
CNCC[C@H](Oc1ccc(C(F)(F)F)cc1)c1ccccc1 | -30.2%[inhibitor] | ?
O=C(Cl)/C=C/C(=O)Cl | 0.0% | -0.3%
COc1c2c(cc3c1OCO3)CCN(C)C2 | -4.4%[16.8 µM] | 1.0%[25.6 µM]
COc1cc2c(c(OC)c1OC)-c1ccc(OC)c(=O)cc1[C@H](NC(C)=O)CC2 | -20.4% | ?
Clc1ccc(Cl)c(Cl)c1 | 8.6% | 0.6%
CNC(C)[C@H](O)c1ccccc1 (stereo partly drawn) | -27.8% | nt
N#CC(Br)Br | 3.4% | 2.4%
C=C(C)[C@H]1CN[C@H](C(=O)O)[C@H]1CC(=O)O | -9.5%&-6.5% | nt
CN1C2CCC1CC(OC(c1ccccc1)c1ccc(Cl)cc1)C2 (stereo not drawn) | -40.2%[inhibitor] | nt
C[C@H](N)[C@@H](O)c1ccccc1 | -3.5%[16.8 µM] | -0.2%[25.6 µM]
C[C@]12CC[C@H]3[C@@H](CCC4=CC(=O)CC[C@@]43C)[C@@H]1CC[C@@H]2O | 0.1% | -1.7%
C[N+](C)(C)CC(=O)[O-] | -10.4% | nt
CN(C)[C@H]1C(=O)C(C(N)=O)=C(O)[C@]2(O)C(=O)C3=C(O)c4c(O)cccc4[C@@](C)(O)[C@H]3C[C@@H]12 | -7.4%[16.8 µM] | -1.0%[25.6 µM]
CC[N+](CC)(CC)CC | -5.8% | -3.7%
O=C1NC(=O)C(=O)C(=O)N1 | 0.2% | nt

(listing goes on)
molecule | Peg3 imprint | IkB signaling
C[N+]1(C)[C@@H]2CC(OC(=O)[C@@H](CO)c3ccccc3)C[C@@H]1[C@H]1O[C@H]12 (stereo partly drawn) | -9.0%[10.9 µM] | 0.6%[11.4 µM]
CC(=O)NNc1ccccc1 | 0.8% | 2.0%
CCN(CC)/[N+]([O-])=N/O | 3.9% | nt
Clc1cccc(Cl)c1Cl | 5.4% | -1.0%
CCCC[N+](=O)[O-] | -2.5% | 1.0%
C[C@@H]1O[C@H](O[C@H]2C[C@@H](O)[C@@]3(CO)[C@H]4[C@@H](O)C[C@]5(C)[C@@H](C6=CC(=O)OC6)CC[C@]5(O)[C@H]4CC[C@]3(O)C2)[C@@H](O)[C@H](O)[C@@H]1O | 1.7%[16.8 µM] | ?
C#CCN(C)[C@H](C)Cc1ccccc1 | -4.3% | -0.1%
CC[C@]1(c2cccc(O)c2)CCCCN(C)C1 | -17.6%[16.8 µM] | 2.3%[25.6 µM]
C=CCc1ccc(OC)cc1 | -5.2%&-0.6% | 0.2%
Clc1cccc(SC2CCNCC2)n1 | -51.9%[inhibitor] | -0.3%
N#CCCCl | 3.6%&0.6% | -2.1%&-0.7%
CC(=O)[O-].CC(=O)[O-].CC(=O)[O-].[Cr+3] | 6.9% | -0.1%
Clc1cc(Cl)c(Cl)c(Cl)c1 | 24.8% | 1.9%
O=S(=O)(O)F | -0.2% | -2.2%
CCOC(=O)c1ccccc1N | 6.6% | -0.9%

Next section
molecule | Peg3 imprint | IkB signaling
CC(=O)[C@H]1CC[C@H]2[C@@H]3CC[C@H]4C[C@H](O)CC[C@]4(C)[C@H]3C(=O)C[C@]12C | -10.9% | nt
CC1OC1P(=O)(O)O (stereo not drawn) | 12.7%&1.2% | nt
C=CC(=O)OCC(C)C | -7.7% | -0.1%
N[C@@H]1C[C@H]1c1ccccc1 | nt | -1.1%
Nc1ccc(-c2ccccc2)cc1 | -5.8% | -0.4%
ClC(Cl)Br | 1.8% | -1.0%
O=[N+]([O-])c1cccc2c([N+](=O)[O-])cccc12 | 10.0% | -0.6%
C[N+]1(C)C2CC(OC(=O)C(CO)c3ccccc3)CC1C1OC12 (stereo not drawn) | -6.6%&-8.0%&1.0% | nt
Cc1ccc(N)c([N+](=O)[O-])c1 | ? | 1.4%
O=Cc1ccc2c(c1)OCO2 | -5.8% | 1.2%
Cc1ccc(N)c(C)c1 | 2.4% | 0.0%
CCCCCCCCCCCCCCCC[N+](C)(C)C | -37.1%[inhibitor] | nt
NC(=S)Nc1ccccc1 | 9.1%&-3.5% | 10.0%&11.2%
Oc1c(Cl)cccc1Cl | 2.7% | 1.2%
OCCBr | 4.5% | 1.0%

> CN1C(=O)COc2c(C(=O)N[C@@H]3CN4CCC3CC4)cc(Cl)cc21
  Peg3 imprint = 0.3%
  IkB signaling = -0.6%
> CC(N)[C@H](O)c1ccccc1 (stereo partly drawn)
  Peg3 imprint = -23.1%
  IkB signaling = nt
> CNC(C)[C@@H](O)c1ccccc1 (stereo partly drawn)
  Peg3 imprint = -15.1%
  IkB signaling = nt
> C[C@@]12CCC3C(CCC4=CC(=O)CC[C@]43C)C1CCC2O (stereo partly drawn)
  Peg3 imprint = -23.1%
  IkB signaling = nt
> C/C=C/C=O
  Peg3 imprint = 3.5%
  IkB signaling = -0.3%
> Clc1ccccc1Cl
  Peg3 imprint = -0.4%
  IkB signaling = -0.5%
> C[C@]12CCC3C(C=CC4=CC(=O)CC[C@]43C)C1CC[C@]2(O)CCC(=O)O (stereo partly drawn)
  Peg3 imprint = -19.1%
  IkB signaling = nt
> C[C@]12C/C(=C/O)C(=O)C[C@@H]1CC[C@@H]1[C@@H]2CC[C@@]2(C)[C@H]1CC[C@]2(C)O
  Peg3 imprint = -19.0%
  IkB signaling = -2.1%

Shown with values under each structure: part of the list above.
Below each SMILES: Peg3 imprint	IkB signaling
> CC(=O)[O-].CC(=O)[O-].CC(=O)[O-].[Cr+3]
    6.9%	-0.1%
> Clc1cc(Cl)c(Cl)c(Cl)c1
    24.8%	1.9%
> O=S(=O)(O)F
    -0.2%	-2.2%
> CCOC(=O)c1ccccc1N
    6.6%	-0.9%
> CC(=O)[C@H]1CC[C@H]2[C@@H]3CC[C@H]4C[C@H](O)CC[C@]4(C)[C@H]3C(=O)C[C@]12C
    -10.9%	nt
> CC1OC1P(=O)(O)O (stereo not drawn)
    12.7%&1.2%	nt
> C=CC(=O)OCC(C)C
    -7.7%	-0.1%
> N[C@@H]1C[C@H]1c1ccccc1
    nt	-1.1%
> Nc1ccc(-c2ccccc2)cc1
    -5.8%	-0.4%
> ClC(Cl)Br
    1.8%	-1.0%
> O=[N+]([O-])c1cccc2c([N+](=O)[O-])cccc12
    10.0%	-0.6%
> C[N+]1(C)C2CC(OC(=O)C(CO)c3ccccc3)CC1C1OC12 (stereo not drawn)
    -6.6%&-8.0%&1.0%	nt
> Cc1ccc(N)c([N+](=O)[O-])c1
    ?	1.4%
> O=Cc1ccc2c(c1)OCO2
    -5.8%	1.2%
> Cc1ccc(N)c(C)c1
    2.4%	0.0%
> CCCCCCCCCCCCCCCC[N+](C)(C)C
    -37.1%[inhibitor]	nt
> NC(=S)Nc1ccccc1
    9.1%&-3.5%	10.0%&11.2%
> Oc1c(Cl)cccc1Cl
    2.7%	1.2%
> OCCBr
    4.5%	1.0%
> CN1C(=O)COc2c(C(=O)N[C@@H]3CN4CCC3CC4)cc(Cl)cc21
    0.3%	-0.6%
> CC(N)[C@H](O)c1ccccc1 (stereo partly drawn)
    -23.1%	nt
> CNC(C)[C@@H](O)c1ccccc1 (stereo partly drawn)
    -15.1%	nt
> C[C@@]12CCC3C(CCC4=CC(=O)CC[C@]43C)C1CCC2O (stereo partly drawn)
    -23.1%	nt
> C/C=C/C=O
    3.5%	-0.3%

These rows are one share of the data, and most or all hits are left out here.
